High-throughput results (PubChem BioAssay)
D2 agonist: Beta-Arrestin HTS for Positive Allosteric Modulators of the Human D2 Dopamine Receptor: Agonists; D(2) dopamine receptor (Homo sapiens), P14416; DiscoveRx PathHunter D2 beta-arrestin, luminescence, 90 min; 100% = 57 uM dopamine signal; activation, % (concentration not given with the values); 360,000 compounds, 0.084% hits; AID 624465, 2012; in the data active = activation above about 40%; inconclusive = about 15% to 40%; inactive = below about 15%; further: the text of the record calls up to 30% inactive
Target sequence (P14416 whole entry, looked up): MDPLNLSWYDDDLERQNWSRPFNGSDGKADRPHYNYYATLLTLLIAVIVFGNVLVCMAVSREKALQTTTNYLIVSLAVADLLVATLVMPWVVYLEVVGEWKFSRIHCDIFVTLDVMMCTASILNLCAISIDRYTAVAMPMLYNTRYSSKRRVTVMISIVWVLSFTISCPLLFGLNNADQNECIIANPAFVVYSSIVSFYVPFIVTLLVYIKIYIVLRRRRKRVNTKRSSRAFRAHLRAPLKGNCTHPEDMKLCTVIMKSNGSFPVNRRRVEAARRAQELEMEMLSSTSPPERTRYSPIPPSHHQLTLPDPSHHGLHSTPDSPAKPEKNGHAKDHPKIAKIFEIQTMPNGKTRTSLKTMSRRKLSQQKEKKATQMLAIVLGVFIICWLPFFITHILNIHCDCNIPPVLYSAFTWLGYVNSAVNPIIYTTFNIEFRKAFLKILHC
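DiscoveRx PathHunter D2 beta-arrestin cells (2,100/well) attached overnight, then compound-stimulated 90 min at 37 C in HBSS/10 mM HEPES/0.1% Tween-20 buffer; beta-galactosidase complementation read by luminescence after 1 h at ambient temperature. Dopamine 57 uM final (EC100) as control.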
D2 PAM: Beta-Arrestin HTS for Positive Allosteric Modulators of the Human D2 Dopamine Receptor: Potentiators. D(2) dopamine receptor (Homo sapiens), P14416. DiscoveRx D2 beta-arrestin cells, luminescence, 90 min; 100% = 57 uM dopamine signal. potentiation, % (no concentration beside the values). 360,000 compounds, 0.23% hits; active = potentiation of 50% or more; inconclusive = 30% to 50%; inactive = 30% or less;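 further: compound concentration not given in the record; tested on top of an EC20 dose of dopamine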
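PathHunter D2 cells, attached overnight at 37 deg C, received compound in DMSO plus dopamine at EC20 (50 nM final) for 90 min at 37 deg C. Beta-arrestin recruitment was read as luminescence after 1 h with detection reagent at ambient temperature.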
CtBP-E1A inh: qHTS Assay for Inhibitors of the CtBP/E1A Interaction; AlphaScreen GST-E1A/His-CtBP binding, 1536-well; active compounds read low; control for the full effect not named in the record; activity change, % (concentration not given with the values); 340,000 compounds, 0.49% hits; AID 651724, 2012; in the data active means activity change below about -65%; inconclusive means about -30% to -65%; inactive means above about -30%; further: on the % scale 0 is the no-effect control and ±100 the full control effect
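Steps: dispense buffer (Tris pH 8.0, NaCl 300 mM, TCEP 1 mM, BSA, Tween 20); add 5X protein mix (GST-E1A, His-CtBP, 125 nM each); pin 23 nL compound; 2 h at 37 °C, dark; add 5X beads (50 ug/mL); 1 h; read.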
PINK1 expr mod: A Quantitative High throughput Screen to Identify Chemical Modulators of PINK1 Expression; Potency, µM (highest dose often 76.6 µM), inactives show at the top dose activation (PINK1 increase), hits mostly activators; PINK1 immunofluorescence, high-content cytometry, 24 h; 410,000 compounds, 0.2% hits; active = well fitted activation curve with a large enough effect; inconclusive = small, poorly fitted or top-dose-only effect; inactive = flat fitted curve, though single readings scatter; cell line not stated here;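 further: potency means the concentration at half of the fitted maximal effect; % of control where 0% means no effect; nearly all actives have a fitted effect of over 65% in size; a mitochondrial uncoupler was the plate control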
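PINK1 protein level read as immunofluorescence by microplate cytometer in a fixed, stained stable cell line after 24 h exposure to five compound concentrations, with CCCP as control.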
TRPML1 agonist: qHTS for Agonists of the Human Mucolipin Transient Receptor Potential 1 (TRPML1); activation, % (concentration not given with the values); 410,000 compounds, 0.12% hits; AID 624414, 2012; Mucolipin-1 (Homo sapiens), Q9GZU1; TRPML1-expressing cells, Ca2+ dye fluorescence, FDSS; host cell line not named in the record; reference of the full effect not given here; in the data active = activation above about 50%; inconclusive = about 30% to 50%; inactive = below about 30%; further: 0% is about no effect; the text of the record puts the active cut at 80%
Target sequence (Q9GZU1 whole entry, looked up): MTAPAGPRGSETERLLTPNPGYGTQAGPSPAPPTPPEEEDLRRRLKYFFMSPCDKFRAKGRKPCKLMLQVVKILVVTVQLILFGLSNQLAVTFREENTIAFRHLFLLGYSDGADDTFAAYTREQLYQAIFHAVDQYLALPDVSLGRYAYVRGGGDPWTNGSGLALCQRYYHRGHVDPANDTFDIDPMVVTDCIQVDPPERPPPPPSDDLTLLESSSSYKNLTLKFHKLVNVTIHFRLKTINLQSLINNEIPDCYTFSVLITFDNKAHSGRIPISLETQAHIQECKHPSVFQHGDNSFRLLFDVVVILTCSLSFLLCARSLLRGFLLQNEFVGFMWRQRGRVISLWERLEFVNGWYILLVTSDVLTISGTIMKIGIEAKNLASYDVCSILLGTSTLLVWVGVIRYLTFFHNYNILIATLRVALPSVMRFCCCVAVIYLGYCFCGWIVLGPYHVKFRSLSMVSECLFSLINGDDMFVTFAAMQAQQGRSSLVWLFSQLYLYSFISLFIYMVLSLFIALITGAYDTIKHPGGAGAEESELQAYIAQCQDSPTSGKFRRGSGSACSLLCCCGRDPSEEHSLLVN
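Agonist activity was taken from a 110 s kinetic Ca2+ dye read on the FDSS after pinning compounds onto TRPML1-DL cells. The cells were seeded at 1,500/well with Tet inducer, incubated about 16 h, then dye-loaded at room temperature.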
Six1-Eya2 inh: qHTS Assay for Inhibitors of the Six1/Eya2 Interaction | AlphaScreen GST-Six1/His-Eya2 binding, biochemical; active compounds read low; control for the full effect not named in the record | 360,000 compounds, 0.56% hits | Homeobox protein SIX1 (Homo sapiens) + Protein phosphatase EYA2 (Homo sapiens), … | activity change, % (concentration not given with the values); in the data active = activity change below about -65%; inconclusive = about -30% to -65%; inactive = above about -30%; further: on the % scale 0 is the no-effect control and ±100 the full control effect
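GST-Six1 + His-Eya2 (5X stock: 250/500 nM); Tris pH 8.0, 300 mM NaCl, 0.05% BSA, 0.02% Tween 20; GSH donor/Ni acceptor beads; 1 h 37 °C dark; AlphaScreen readout.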
An asterisk follows results filed as active; ? = inconclusive; . = not tested or not shown; [ ] = another dose, or the depositor's remark. Not a hit list. Share with any hit: about 1.3%.

Molecule	D2 agonist	D2 PAM	CtBP-E1A inh	PINK1 expr mod	TRPML1 agonist	Six1-Eya2 inh
Nc1ccn(CCCN2CCN(Cc3cccc4ccccc34)CC2)c(=O)n1	-5.2	-4	1	1.1%	-0.4	-4
O=C1CN(C(=O)COC(=O)Cc2ccsc2)c2ccccc2N1	-2.1	-1	5	2.0%	-0.6	-1
CC(C)=NNc1nc2c(c(=O)n(C)c(=O)n2C)n1C	-6.5	-21	.	4.8%	-0.4	-10
CCC(C)NC(=O)c1cc(-c2ccc3c(c2)OCO3)on1 (stereo not given)	0.9	-2	6	-0.4%	0.7	2
CCOC(=O)c1ccc(N2Cc3ccccc3C2=NC(=O)c2cccc([N+](=O)[O-])c2)cc1	-1.4	-5	2	0.6%	.	3
Cc1cccc(NC(=O)CN2C(=S)NC(C)(C)CC2C)c1C (stereo not given)	1.6	0	-3	-0.9%	-0.7	4
CC1=C(C(=O)Nc2ccccc2C(F)(F)F)C(c2sccc2C)NC(=S)N1 (stereo not given)	-0.9	-9	0	-0.5%	1.1	-4
CC(C(=O)OCC(=O)N(C)C1(C#N)CCCCC1)N1C(=O)c2ccccc2C1=O (stereo not given)	-4.0	-2	13	-0.2%	-0.4	8
CCC1CO/C(=C(\C(Cl)=C(Cl)Cl)[N+](=O)[O-])N1 (stereo not given)	1.7	-4	.	0.3%	1.6	-7
Nc1nc(-c2ccccc2)nc2nonc12	-5.3	-11	1	-0.8%	-0.6	-10
OC[C@@H]1CN(Cc2ccccc2)C[C@H](n2cnc3c(NC4CCCC4)ncnc32)O1	-4.1	-3	4	2.0%	-0.7	0
Cc1ccc(NC2=C(CC(=O)O)C(c3ccccc3)N(c3ccc(C)cc3)C2=O)cc1 (stereo not given)	-6.3	-39	-7	3.3%	-0.6	-10
COc1cc(OC)cc(C(=O)NN2CCOCC2)c1	-1.7	1	-23	-0.4%	-0.2	-6
COc1ccccc1N1CCN(C2CCCN(C(=O)c3ccnc4ccc(C)cc34)C2)CC1 (stereo not given)	-6.2	-15	-4	3.0%	-0.5	6
O=C(N/C(=C/c1cccnc1)C(=O)N1CCOCC1)c1ccccc1F	-3.5	-4	3	1.1%	-0.2	-16
CN(CC(=O)Nc1ccc(F)c(F)c1)S(=O)(=O)c1cccc2cccnc12	-1.5	-15	.	2.4%	1.3	-2
OC(CNCc1ccccc1)COCc1ccc(Cl)cc1 (stereo not given)	-2.5	-7	0	-1.3%	0.0	0
COc1ccc(C(O)c2ncc(-c3ccccc3OC)[nH]2)cc1 (stereo not given)	-3.6	-13	0	-0.5%	-0.6	-2
COC(=O)c1cc(OC)c(OC)cc1NC(=S)N1CCN(c2ccccn2)CC1	-4.8	-6	0	3.4%	-0.2	-7
O=C(O)CN(c1cccc(C(F)(F)F)c1)S(=O)(=O)c1ccccc1	1.9	11	-18	-0.2%	-0.7	2
COc1ccc(-c2cc(C(F)F)n3ncc(C(=O)N4CCN(C)CC4)c3n2)cc1	-4.2	-43	4	-2.4%	-1.1	7
CCCN(CC(=O)Nc1cc(Cl)ccc1Cl)C(=O)/C=C/c1cc(OC)ccc1OC	-0.9	-2	30	3.4%	-0.1	19
CCCNC(=O)C(Cc1ccccc1C)NC(=O)c1ccc(C(F)(F)F)cc1 (stereo not given)	-0.3	-3	5	6.0%	1.0	3
CC1CCN(CCc2nc3cc(NC(=O)COc4ccc([N+](=O)[O-])cc4)ccc3n2C)CC1	-5.3	-37	-10	-0.8%	1.0	-8
O=C(N/N=C/c1ccccn1)c1cc(Br)ccc1O	-6.0	-25	?	1.4%	-0.3	-24
S=C(Nc1ccccn1)Nc1ccccc1Cl	-1.0	-6	6	3.9%	0.1	0
O=C(COC(=O)c1cc(=O)c2ccccc2o1)NCc1ccccc1	-5.6	3	2	0.8%	-0.4	2
CCCNC(=O)C(Cc1ccccc1)NC(=O)c1ccc(C(F)(F)F)cc1 (stereo not given)	2.1	-12	29	1.8%	-0.3	1
CCCCOc1ccc(Cc2c(Cl)nc(SC)nc2N2CCOCC2)cc1	-2.2	-5	1	2.6%	-0.3	6
CCCCc1ccc(S(=O)(=O)NC(=O)C2(C)CCN2C(=O)Cc2ccccc2)cc1 (stereo not given)	-0.8	1	8	1.3%	-0.2	-2
CCc1nc2c(cnn2-c2ccc(F)cc2)c(=O)n1-c1ccc(N2CCC(C)CC2)cc1	2.2	-2	-1	4.1%	-0.8	-3
CCc1sc(NC(=O)CN2CCOCC2)nc1-c1ccccc1	1.8	-4	5	0.2%[38.3 µM]	0.2	-3
O=C(O)c1ccc(CSCc2ccccc2)o1	-1.6	-4	5	2.7%	-0.6	-2
C=CCn1c(CNC(=O)c2ccccc2F)nnc1SCc1nc2ccccc2c(=O)[nH]1	13	-31	-5	3.9%	0.9	3
c1ccc(-c2ccc3c(c2)c2c4n3CCN=C4CCC2)cc1	-3.1	-15	-9	-3.1%[38.3 µM]	-0.4	-7
O=C(COc1cccc(F)c1)N[C@@H](Cc1ccccc1)c1nc2ccccc2[nH]1	-1.8	-9	.	5.8%	1.3	8
COc1cccc(C(=O)NNS(=O)(=O)c2ccc(C)cc2)c1	1.8	-3	3	0.9%	-0.9	-1
O=C(c1ccc(Cn2c(=S)[nH]c3ccccc3c2=O)cc1)N1CCN(c2ccccn2)CC1	3.0	0	-3	1.0%	2.3	-18
CCCCc1nnc(NC(=O)C2CC(=O)N(c3ccc(C)cc3)C2)s1 (stereo not given)	-1.3	-1	10	2.3%	-0.8	-4
Cc1cccc(NCc2nc(SCC(=O)Nc3ccccc3Br)n[nH]2)c1	-1.6	-2	0	-2.0%	2.6	3
CCCCc1nc(Cl)c(C#N)c2c1CCCC2	-5.1	-4	.	1.5%	-0.2	10
COc1ccc(N2CCN(CC(=O)Nc3c(C)cccc3C)CC2)cc1	-1.8	-14	1	0.0%	-0.8	1
O=C(COC(=O)c1cc([N+](=O)[O-])ccc1NCCO)Nc1cccc(S(=O)(=O)N2CCCC2)c1	1.9	-21	-15	4.2%	1.7	-13
Cc1oc(-c2ccc(Cl)cc2)nc1CS(=O)CC(=O)NCc1ccccn1 (stereo not given)	-4.4	-5	-5	-0.1%	-0.5	-4
c1ccc2c(c1)NC1(CCCCCC1)n1c-2nc2ccccc21	1.8	-2	1	-1.5%	-0.2	8
O=C(NC1CCCC1)C1C2C=CC3(CN(Cc4cccs4)C(=O)C13)O2 (stereo not given)	-30	-2	3	0.0%	-0.7	2
COc1ccc(C(=O)Nc2ccccc2C(=O)Nc2ccccc2C(=O)O)cc1	0.9	-3	-77*	8.7%	0.2	-66*
Oc1ccc(Nc2nc(-c3cccs3)cs2)cc1	-0.4	-4	6	3.4%	-0.6	2
OCCN(Cc1ccccc1)Cc1ccc(Cl)cc1Cl	-2.5	-25	29	-2.5%[38.3 µM]	-0.1	10
Cc1ccc(-c2nc(CCN3C(=O)c4ccccc4C3=O)cs2)cc1	-1.5	-8	16	25%[38.3 µM]	0.4	12
CC(C)CNS(=O)(=O)c1ccc(S(=O)(=O)NC2CCOC(C)(C)C2)cc1 (stereo not given)	1.4	3	16	-0.2%[38.3 µM]	2.4	2
NC(=O)c1nn(-c2ccccc2)nc1NC(=O)Cn1nnc(-c2ccccc2)n1	0.6	-12	-8	3.0%	0.7	-2
COC(=O)CCC(=O)NNC(=O)c1cccc(Br)c1	1.9	-18	-3	-2.3%	0.5	11
COc1ccc(C2NCCn3cccc32)cc1 (stereo not given)	-5.0	-12	-6	1.6%	-0.1	-14
CCn1cc(CN2CCN(Cc3ccc(OC)c(C)c3C)C(CCO)C2)c(C)n1 (stereo not given)	-2.5	-13	0	-3.0%	0.5	1
O=C(CCn1cncn1)N1CCN(S(=O)(=O)c2ccc(Cl)cc2)CC1	-1.3	-1	-3	2.0%	-0.7	4
Cc1ccc(-n2[nH]c(C)c(/C=N/N3C(=O)c4cccc5cccc(c45)C3=O)c2=O)cc1	2.6	0	-13	-3.7%	-0.1	-27
Cc1cccc(C)c1NC(=O)C1(C)CCC(=O)N1c1cc(C(C)(C)C)nn1C (stereo not given)	1.0	2	8	-0.4%	-0.6	3
Cc1ccccc1C(=O)Nc1nnc(-c2ccc(F)cc2)o1	-1.1	-10	-14	1.0%	-0.7	-23
O=C1C=CC(c2c[nH]c3ccccc23)CC1 (stereo not given)	.	.	4	11%	-0.3	3

Records listed above printed as active in Six1-Eya2 inh.
Compound	D2 agonist	D2 PAM	CtBP-E1A inh	PINK1 expr mod	Six1-Eya2 inh
COc1ccc(C(=O)Nc2ccccc2C(=O)Nc2ccccc2C(=O)O)cc1	0.9	-3	-77*	8.7%	-66*

(cont.)
Molecule	D2 agonist	D2 PAM	CtBP-E1A inh	PINK1 expr mod	TRPML1 agonist	Six1-Eya2 inh
CC1OC(C2CCCCC2)Cc2[nH]c(=S)[nH]c(=O)c21 (stereo not given)	.	.	0	-0.7%	-0.9	4
CCc1nc2ccccc2n1CCC(C)C	-0.7	-8	2	-1.3%	1.5	9
O=C(Nc1c2c(nn1-c1ccccc1)CS(=O)(=O)C2)C1CC1	0.6	-5	3	-0.6%	-0.8	6
C=CCSc1nnc2c(n1)OC=Nc1ccc(Br)cc1-2	-1.7	-14	0	2.8%	-0.7	1

5 compounds already listed, ordered by length of the SMILES, descending:
Molecule	D2 agonist	D2 PAM	CtBP-E1A inh	PINK1 expr mod	TRPML1 agonist	Six1-Eya2 inh
Cc1ccc(-n2[nH]c(C)c(/C=N/N3C(=O)c4cccc5cccc(c45)C3=O)c2=O)cc1	2.6	0	-13	-3.7%	-0.1	-27
Cc1cccc(C)c1NC(=O)C1(C)CCC(=O)N1c1cc(C(C)(C)C)nn1C (stereo not given)	1.0	2	8	-0.4%	-0.6	3
O=C(Nc1c2c(nn1-c1ccccc1)CS(=O)(=O)C2)C1CC1	0.6	-5	3	-0.6%	-0.8	6
Cc1ccccc1C(=O)Nc1nnc(-c2ccc(F)cc2)o1	-1.1	-10	-14	1.0%	-0.7	-23
CCc1nc2ccccc2n1CCC(C)C	-0.7	-8	2	-1.3%	1.5	9
